# AF4-AF9 inh: inhibitors of AF4 peptide binding to AF9, primary screen, biochemical, AlphaScreen, biotin-AF4 peptide, FLAG-AF9, single point; inhibition, % at 10 µM; Protein AF-9 (Homo sapiens), P42568; actives 0.47% (n = 350,000);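 active = every replicate reaching a set inhibition limit, whatever the replicate mean, cut at about 25% in these data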;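 note: 0% = plate neutral control median and 100% = total signal loss; the record names both 10 and 1 µM as test concentration; the first replicate is given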
# Target sequence (P42568 whole entry, looked up): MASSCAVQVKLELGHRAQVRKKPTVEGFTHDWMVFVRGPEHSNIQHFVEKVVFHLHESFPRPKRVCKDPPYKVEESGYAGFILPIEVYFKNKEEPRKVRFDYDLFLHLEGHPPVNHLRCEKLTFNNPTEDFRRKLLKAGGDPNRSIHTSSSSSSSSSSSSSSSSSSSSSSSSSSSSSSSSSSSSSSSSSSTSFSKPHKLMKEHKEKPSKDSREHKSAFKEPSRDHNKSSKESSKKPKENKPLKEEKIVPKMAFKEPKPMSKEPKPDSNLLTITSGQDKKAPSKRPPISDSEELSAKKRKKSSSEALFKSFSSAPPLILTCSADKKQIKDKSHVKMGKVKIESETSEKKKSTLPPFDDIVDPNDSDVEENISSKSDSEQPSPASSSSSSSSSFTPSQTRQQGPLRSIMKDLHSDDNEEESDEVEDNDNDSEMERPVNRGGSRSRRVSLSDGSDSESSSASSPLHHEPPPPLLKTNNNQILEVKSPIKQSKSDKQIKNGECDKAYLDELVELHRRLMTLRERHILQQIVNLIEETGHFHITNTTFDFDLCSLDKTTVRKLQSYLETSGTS
# rRNA inh HTS: reduced GFP signal of wild-type E. coli, primary screen, bacterial rRNA inhibitor project, GFP/RFP fluorescence, OD600, single point; E. coli WT GFP vs humanized-ribosome RFP mutants, 24 h; stronger effect = lower value; DMSO median 0, no signal -100; GFP signal change (wild-type ribosome), % (no concentration beside the values); actives 1.6% (n = 350,000); AID 720706, 2013;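 active = significant combined selectivity score with lowered wild-type GFP, culture density cut under 30%, mutant RFP and density less affected; inactive = any of these conditions unmet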; note: one replicate is shown; some compounds called inactive have numbers as strong as hits
# FGF22 binding: binders of human FGF22 protein, primary screen, FGF22 synaptogenesis inhibitor project, biophysical, thermal shift, single point; AID 651658, 2012; actives 1.5% (n = 340,000); recombinant FGF22 thermal shift, SYPRO orange fluorescence; percent of sucrose octasulfate shift, DMSO zero; Fibroblast growth factor 22 (Homo sapiens), Q9HCT0; calls only at 9.99 µM;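 active = melting point raised past a set limit in the mean and every replicate; three in four hits are not shown here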
# Target sequence (Q9HCT0 whole entry, looked up): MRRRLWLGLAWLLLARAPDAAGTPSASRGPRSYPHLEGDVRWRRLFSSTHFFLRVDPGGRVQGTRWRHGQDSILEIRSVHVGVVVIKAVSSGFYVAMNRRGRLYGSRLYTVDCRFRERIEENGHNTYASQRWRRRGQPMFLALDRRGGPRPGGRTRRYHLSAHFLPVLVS
# rRNA inh HTS OD600: second read-out of rRNA inh HTS, no call of its own (marks repeat the call); OD600 change, %; measured here: OD600 growth;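 optical density of the mix in the first replicate; 0 = DMSO median and -100 = no signal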
# rRNA inh HTS RFP: recorded beside rRNA inh HTS, whose call it bears; RFP signal change, %; measured here: RFP humanized mutant strains;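 first replicate; 0 = DMSO median and -100 = no signal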
# Starred values were filed as active, the others as inactive; i = inactive; . = not tested or not shown. A portion of the library; count on the stated rates, not on these rows.
# The line under a structure holds: FGF22 binding, rRNA inh HTS OD600, rRNA inh HTS RFP, AF4-AF9 inh, rRNA inh HTS
- Cc1noc(C)c1NC(=O)N(C)C[C@H]1OCCCC[C@@H](C)Oc2ccc(NC(=O)NC3CCCCC3)cc2C(=O)N([C@@H](C)CO)C[C@H]1C
→ i, 4.3, -0.4, -14.2, -0.2
- CCOC(=O)C1(C(=O)OCC)CCN(S(=O)(=O)c2ccccc2)CC1
→ i, 0.6, 6.4, -2.7, -2.8
- O=C(C[C@H]1CC[C@H]2[C@@H](COC[C@@H](O)CN2Cc2cccc(C(F)(F)F)c2)O1)NCCc1ccccc1
→ i, -11.8, 2.2, -11.4, -2.5
- COc1ccc(CNC(=O)C2(C)Cc3c(-c4cccc(C(N)=O)c4)ccnc3O2)cc1OC (stereo not given)
→ i, -0.8, 3.9, -2.7, -0.6
- Cc1ccc(-c2ccc3c(c2)O[C@@H](CN(C)Cc2ccncc2)[C@@H](C)CN([C@H](C)CO)S3(=O)=O)cc1
→ i, -24.4, 5.2, -2.7, -11.8
- CO[C@@H]1CN(C)C(=O)c2ccc(NC(=O)C3CC3)cc2OC[C@H](C)N(C(=O)Cc2ccccn2)C[C@@H]1C
→ i, -1.3, -1.0, -1.4, 1.2
- CC(=O)N1[C@@H]2Cn3c(cccc3=O)[C@H]1[C@@H](C(=O)NC1CCCC1)[C@@H]2CO
→ i, 1.5, -1.9, -0.2, 2.8
- C[C@@H]1CN([C@@H](C)CO)C(=O)c2c(c3ccccc3n2C)-c2ccccc2CO[C@@H]1CN(C)C(=O)CCC(F)(F)F
→ i, -6.6, 3.0, -3.4, -0.8
- C[C@@H]1CN([C@@H](C)CO)C(=O)c2cc(NC(=O)NC3CCCCC3)ccc2O[C@@H](C)CCCCO[C@@H]1CN(C)Cc1ccc2c(c1)OCO2
→ i, -14.9, 1.5, 6.4, -5.2
- O=C(Nc1ccccc1F)N1CCCCN2[C@@H](CO)[C@H](c3ccc(C#Cc4cccnc4)cc3)[C@@H]2C1
→ i, 0.0*, 4.5*, -1.4, -18.6*
- CCC(=O)N(C)C[C@@H]1Oc2cc(-c3ccccc3F)ccc2S(=O)(=O)N([C@H](C)CO)C[C@@H]1C
→ i, -7.2, 0.3, -0.6, -5.2
- C[C@@H]1CN([C@H](C)CO)C(=O)c2cc(-c3cccc(C#N)c3)cnc2O[C@@H]1CN(C)C(=O)c1ccccn1
→ i, 22.1, -3.0, -5.2, 5.8
- CCN(CC)C(=O)[C@H]1CC(CC(=O)NC/C=C(\C)CCC=C(C)C)C(=O)N2CCc3c([nH]c4ccc(OC)cc34)[C@]12C (stereo not given in full)
→ ., -4.6, 0.0, 1.5, 0.3
- CCC(=O)Nc1ccc2c(c1)OC[C@H](C)N(C(=O)C1CCC1)C[C@H](C)[C@H](OC)CN(C)C2=O
→ i, 6.8, -2.8, -1.1, -0.6
- COc1ccccc1-c1ccc2c(c1)C(C)(Cc1ccccc1C#N)C(=O)N2 (stereo not given)
→ i, -75.1, -7.9, 0.8, -43.5
- CO[C@@H]1CN(C)C(=O)c2cccc(C#N)c2OCC[C@@H]2CC[C@@H](OC)[C@@H](CN(C)C(=O)[C@H]1C)O2
→ i, -4.2, -3.5, 5.2, -3.2
- O=C(c1cccc(F)c1)N1C[C@H]2[C@@H](c3ccccc31)[C@H](CO)N2C(=O)c1ccc(F)cc1
→ i, 3.1, -3.4, -0.7, 2.5
- CCN(CC)C(=O)C1=C(C)N(Cc2ccc(C(C)(C)C)cc2)C(=O)C(CC(=O)NCCN2CCOCC2)C1 (stereo not given)
→ i, 1.6, -8.6, -1.1, 1.8
- O=C(NCC1CC1)[C@@H]1[C@@H](CO)[C@@H]2Cn3c(ccc(-c4ccccc4)c3=O)[C@@H]2N1Cc1cocn1
→ i, -1.2, -2.0, 3.3, -1.0
- C[C@H]1CN([C@@H](C)CO)C(=O)c2cc(N(C)C)ccc2O[C@@H]1CN(C)S(=O)(=O)c1ccc(Cl)cc1
→ i, -5.1, 0.8, -2.9, -6.6

# Additional results.
# The line under a structure holds: FGF22 binding, rRNA inh HTS OD600, rRNA inh HTS RFP, AF4-AF9 inh, rRNA inh HTS
- CCCN(C)C[C@H]1Oc2cc(/C=C/c3ccccc3)ccc2S(=O)(=O)N([C@H](C)CO)C[C@@H]1C
→ i, -25.9, 6.9, 14.5, -0.8
- CO[C@H]1CN(C)C(=O)c2cc(NC(=O)C3CCC3)ccc2OC[C@H](C)NC[C@@H]1C
→ i, 6.7, -1.8, -1.3, 1.5
- CC(C)c1cc(C(=O)OCC(=O)NC2CC2)c(O)c(C(C)C)c1
→ i, -1.8, 1.9, -1.0, -0.2
- Cc1cccc(C(=O)NNC(=O)c2ccc3ccccc3c2)c1
→ i, 0.4, 2.0, -1.7, -4.7
- COc1cccc(S(=O)(=O)N2CCCCN3[C@@H](CO)[C@H](c4ccc(C#CC5CC5)cc4)[C@@H]3C2)c1
→ i, -70.8, -5.4, 11.4, -56.2
- CNC[C@@H]1Oc2ncc(/C=C/c3ccccc3)cc2C(=O)N([C@H](C)CO)C[C@@H]1C
→ i, 9.5, 10.9, 9.6, 0.4
- COc1ccc(CN(C)C[C@H]2OCCCC[C@@H](C)Oc3ccc(NC(=O)C4CCCCC4)cc3C(=O)N([C@H](C)CO)C[C@@H]2C)cc1
→ i, 1.3, -0.6, -9.0, 2.8
- C[C@H]1CN([C@@H](C)CO)C(=O)Cc2cc(NC(=O)Nc3cccc4ccccc34)ccc2O[C@@H]1CN(C)CC1CCCCC1
→ i, -1.9, 1.3, 2.4, -0.4
- CCC(=O)N1CCCCN2[C@H](CO)[C@@H](c3ccc(C#Cc4ccccc4)cc3)[C@H]2C1
→ i, -77.5, -13.2, 7.8, -58.7
- C[C@@H]1CCCCO[C@@H](CN(C)C(=O)Nc2ccc(C(F)(F)F)cc2)[C@H](C)CN([C@@H](C)CO)C(=O)c2cc(NS(=O)(=O)c3ccccc3)ccc2O1
→ i, -5.1, -1.1, -8.8, -1.3
- CCC1OC(C)Cc2[nH][nH]c(=O)c21 (stereo not given)
→ i, 13.1, -3.2, -4.4, 12.0
- COc1cccc(-c2ccc3c(c2)[C@H]2[C@H](CCN2S(=O)(=O)c2ccccc2F)[C@@H](CO)N3)c1
→ i, -3.6, 2.2, -0.7, -1.8
- C[C@@H]1CCCCO[C@@H](CN(C)Cc2ccc(C(=O)O)cc2)[C@H](C)CN([C@@H](C)CO)C(=O)c2cc(NC(=O)NC3CCCCC3)ccc2O1
→ i, -0.4, -2.6, 2.2, -1.6
- CN1CCN(C(=O)C[C@@H]2CC[C@H]3[C@@H](COc4ccc(NC(=O)C5CCCCC5)cc4C(=O)N3C)O2)CC1
→ i, -6.3, 0.4, -13.2, 3.1
- CCOC(=O)/C(=C\c1ccccc1)C(=O)CCN1CCOCC1
→ i, 13.4, -1.6, -3.9, 7.3
- COCC(=O)N1CCC(c2nc3ccccc3[nH]2)CC1
→ i, 7.4, -0.7, 0.2, 13.8
- O=C(NCC[C@@H]1CC[C@@H](NS(=O)(=O)c2cccc(F)c2)[C@@H](CO)O1)C1CCOCC1
→ i, 7.8, 1.0, -1.6, 3.8
- CCC(=O)Nc1ccc2c(c1)C(=O)N(C)[C@@H]1CC[C@@H](CC(=O)N[C@@H](C)c3ccccc3)O[C@@H]1CO2
→ i, -4.4, 0.2, -0.7, -2.0
- CCN(CC)CCN=c1c(C)nc(C#N)c(N)n1O
→ i, 17.3, -2.0, -1.8, 7.8
- COc1ccc2c3c(n(C)c2c1)[C@H](CO)NCC31CCN(Cc2ccc(-c3ccccn3)cc2)CC1
→ i, 2.1, 6.6, 30.3*, -6.8

# (further entries)
# The line under a structure holds: FGF22 binding, rRNA inh HTS OD600, rRNA inh HTS RFP, AF4-AF9 inh, rRNA inh HTS
- COc1ccc(CN(C)C[C@H]2Oc3ccc(NS(=O)(=O)c4cn(C)cn4)cc3C(=O)N([C@H](C)CO)C[C@H]2C)cc1
→ i, 5.2, -2.3, -2.9, 4.2
- C[C@@H]1CN([C@H](C)CO)C(=O)c2cccc(NC(=O)Nc3ccccc3)c2O[C@H]1CN(C)Cc1ccc(C(=O)Nc2ccccc2N)cc1
→ i, -5.5, -2.1, 1.1, -5.5
- C[C@H]1CN([C@@H](C)CO)C(=O)c2cc(NC(=O)Nc3ccccc3)ccc2O[C@H]1CN(C)S(=O)(=O)c1ccc(F)cc1
→ i, -6.0, 1.1, -9.7, 3.3
- C[C@H](CO)N1C[C@H](C)[C@@H](CN(C)Cc2ccc(-c3ccccc3)cc2)Oc2c(NC(=O)c3nc4ccccc4s3)cccc2C1=O
→ i, 4.8, -6.3, 2.0, -2.8
- C[C@H](CO)N1C[C@H](C)[C@H](CN(C)C(=O)Nc2ccc(F)cc2)OCCCC[C@H](C)Oc2ccc(NS(=O)(=O)c3cn(C)cn3)cc2C1=O
→ i, 0.0, 2.1, 5.7, -2.0
- COc1ccccc1S(=O)(=O)N(C)C[C@H]1Oc2cc(C#CCC(C)C)ccc2S(=O)(=O)N([C@H](C)CO)C[C@@H]1C
→ i, -6.2, -3.3, 2.0, 0.4
- COc1ccc(C=C(C(=O)c2ccccc2)c2ccccc2)cc1
→ i, 0.4, 2.2, 4.5, 1.3
- Cc1ccc(Cl)c(NC(=O)CN2C(=O)C(C)N(c3ccc(F)cc3)C2=O)c1Cl (stereo not given)
→ i, -27.0, -13.7, -4.0, 2.6
- CO[C@H]1CN(C)C(=O)c2cc(NS(=O)(=O)c3ccccc3C)ccc2OC[C@@H](C)NC[C@@H]1C
→ i, 1.8, -1.8, -0.8, 1.5
- Cc1c(/C(O)=C2\C(=O)C(=O)N(CCCN(C)C)C2c2cccs2)cnn1-c1ccccc1 (stereo not given)
→ i, 13.9, -1.1, -6.0, 16.1
- C[C@@H]1CN([C@@H](C)CO)C(=O)c2cc(N(C)C)ccc2O[C@@H]1CN(C)Cc1ccc2c(c1)OCO2
→ i, 1.9, -0.8, 3.3, -1.1
- C/C=C/c1ccc2c(c1)O[C@H](CN(C)C(=O)c1cccc(F)c1)[C@@H](C)CN([C@H](C)CO)S2(=O)=O
→ i, -14.5, -0.4, 2.9, -1.0
- O=C1c2ccccc2[C@@H]2C[C@@H](O)[C@H](Nc3cccc(C(F)(F)F)c3)CCN12
→ i, -36.2, -7.0, -1.3, 4.5
- O=C(C[C@@H]1C[C@@H]2c3cc(NC(=O)NC4CCCC4)ccc3O[C@@H]2[C@@H](CO)O1)NCc1cccnc1
→ i, 4.6, 0.0, 3.2, 1.7
- O=C(Nc1ccc(F)cc1)N1CCCCN2[C@H](CO)[C@@H](c3ccc(C#CC4CC4)cc3)[C@H]2C1
→ i, -76.4, -13.1, 7.6, -60.9
- O=C(c1ccccn1)N(Cc1ccco1)C1(C(=O)Nc2ccc(Br)cc2)CCCCC1
→ i, 3.0, 3.6, -0.8, 1.9
- O=C(C[C@H]1C[C@@H]2c3cc(NC(=O)C4CCC4)ccc3O[C@@H]2[C@H](CO)O1)NCc1ccccc1
→ i, -8.1, -0.7, -0.6, 0.0
- C[C@@H](NC(=O)C[C@@H]1CC[C@@H]2[C@H](COC[C@@H](O)CN2Cc2ccc(C(F)(F)F)cc2)O1)c1ccccc1
→ i, -12.8, 0.0, 0.6, -0.8
- C[C@@H](NC(=O)C[C@H]1C[C@H]2c3cc(NC(=O)Nc4ccccc4F)ccc3O[C@H]2[C@H](CO)O1)c1ccccc1
→ i, 9.4, 0.5, -2.1, -0.3
- C[C@@H]1CN([C@H](C)CO)C(=O)c2cc(NS(=O)(=O)c3ccc(Cl)cc3)ccc2O[C@@H]1CN(C)Cc1ccncc1
→ i, -1.8, 0.8, -5.4, 1.5

# New compounds follow.
# The line under a structure holds: FGF22 binding, rRNA inh HTS OD600, rRNA inh HTS RFP, AF4-AF9 inh, rRNA inh HTS
- O=C(C1CCCCC1)N1[C@@H](CO)[C@@H]2c3ccccc3N(S(=O)(=O)c3ccccc3)C[C@@H]21
→ i, -10.7, -4.5, -2.1, -7.8
- CO[C@H]1CC[C@@H]2CCN(C)C(=O)[C@@H](C)[C@H](OC)CN(C)C(=O)c3cc(C#N)ccc3OC[C@H]1O2
→ i, -14.7, 1.9, -8.8, 0.9
- Cc1ccc(-c2ccc3c(c2)O[C@H](CN(C)Cc2cncnc2)[C@@H](C)CN([C@@H](C)CO)S3(=O)=O)cc1
→ i, -33.0, 25.1, 5.2, -16.8
- CCOC(=O)c1cnc2cc(-c3ccc(C)cc3)nn2c1C
→ i, 2.7, 1.4, -0.8, 2.3
